Sfp inh = inhibitors of Bacillus subtilis Sfp phosphopantetheinyl transferase; Biochemical Sfp PPTase activity, qHTS; Potency, µM, inactives show max response, negative = inhibition, hits mostly inhibitors; hit rate 3.5% among 310,000; Q9F4F7; AID 1490; active means well fitted inhibition curve with a large enough effect; inconclusive means small, poorly fitted or top-dose-only effect, or another doubt; inactive means no such curve, though single readings can be large or run the other way;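 further: the enzyme is Sfp with the accession as filed and its product quenches rhodamine fluorescence; potency means the concentration at half of the fitted maximal effect; 0% = enzyme reaction without inhibitor and -100% = no enzyme wells; top concentration of the series not given in the record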
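With Hepes-Na pH 7.6 buffer containing 10 mM MgCl2, Sfp (15 nM) modified BHQ-2-YbbR (12.5 uM) using rhodamine-CoA (5 uM). Two reads 30 minutes apart at 525/598 nm yielded each well's rate.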
gsp ag = activates gsp, the McCune-Albright syndrome mutation. hit rate 0.13% among 340,000. Potency, µM (top dose mostly 76.9 µM), for inactives: top-dose activation (cAMP increase), usual class: activators. AID 624287. gsp mutant cells, cAMP HTRF, 30 min; control for the full effect not named in the record; active = well fitted activation curve with a large enough effect; inconclusive = small, poorly fitted or top-dose-only effect, or another doubt; inactive = no such curve, though single readings can be large or run the other way; cell line not stated here;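 further: phosphodiesterase inhibitor Ro 20-1724 added with compounds to block cAMP breakdown; potency means the concentration at half of the fitted maximal effect; nearly all actives have a fitted effect of over 60% in size; about a fifth of the inactives were tested at one dose only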
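Cells stably selected in G418 were plated at 2000/well, grown 16-24 hr, then given compounds in DMSO with the PDE inhibitor […] (300 uM solution added) for 30 min at 37C; cAMP was read by HTRF.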
ClpP mod = qHTS Assay for Activators of ClpP; purified B. subtilis ClpP, FRET peptide cleavage, 20 min; ATP-dependent Clp protease proteolytic subunit (Bacillus subtilis (strain 168)), P80244; hit rate 1.9% among 340,000; Potency, µM (series often up to 57.5 µM), without a hit: at the top dose activity change, negative = active; active = well fitted falling curve with a large enough effect; inconclusive = small, poorly fitted or top-dose-only effect; inactive = no such curve, though single readings can be large or run the other way; further: potency means the concentration at half of the fitted maximal effect; the source files actives as falling curves though it sought activators and does not explain the sign; nearly all actives have a fitted effect of over 65% in size; many hits overshoot -100%
Target sequence (P80244 whole entry, looked up): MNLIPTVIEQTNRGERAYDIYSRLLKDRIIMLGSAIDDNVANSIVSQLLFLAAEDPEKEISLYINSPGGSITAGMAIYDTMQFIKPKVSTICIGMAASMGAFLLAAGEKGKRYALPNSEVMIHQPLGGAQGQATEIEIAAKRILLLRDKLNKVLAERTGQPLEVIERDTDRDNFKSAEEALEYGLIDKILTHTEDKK
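Buffer: 100 mM Tris/HCl pH8, 100 mM KCl, 0.05% low protease BSA, 2.5% glycerol, 0.01% Tween-20. ClpP 10 microg/mL final; 20 min RT; delta FRET normalized to ADEP and DMSO controls.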
Menin MLL FP FL = menin-MLL binding inhibition, fluorescein peptide. 290,000 tested, under 10 active. AID 1766. Fluorescence polarization, fluorescein-MLL peptide displacement from menin. FP activity change, % at 61.4 µM; inconclusive = falling polarisation curve, or a change in total fluorescence; inactive = total fluorescence flat and polarisation flat or rising; no compound was filed as active; the % refers to the polarisation; negative = inhibition;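 further: % of control where 0% means no effect; inhibitors lower the polarisation; unlabelled MLL peptide was the positive control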
gsp antagonist = antagonists of gsp mutant (McCune-Albright syndrome) | gsp-mutant cells, cAMP HTRF, 30 min; control for the full effect not named in the record | hit rate 0.4% among 340,000 | AID 624288 | Potency, µM (highest dose often 76.9 µM), for the others: top-dose activity change, negative = inhibition, usual class: inhibitors; active = falling curve of any shape with a large fitted effect; inconclusive = falling curve, mostly with a smaller effect; inactive = flat or rising curve; cell line not stated here;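 further: intracellular cAMP measured with PDE inhibitor Ro 20-1724 present during compound exposure; potency means the concentration at half of the fitted maximal effect; on the % scale 0 is the no-effect control and ±100 the full control effect; nearly all actives have a fitted effect of over 65% in size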
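Measurement of cellular cAMP by homogeneous time-resolved fluorescence following a 30 min compound exposure at 37C. The PDE inhibitor […] was present throughout; the assay buffer was DPBS with 0.05% BSA and 0.005% Tween 20.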
PINK1 modulator = modulators of PINK1 expression; PINK1 immunofluorescence, high-content cytometry, 24 h; Potency, µM (doses to about 76.6 µM), for the others: top-dose activation (PINK1 increase), most hits filed as activators; hit rate 0.2% among 410,000; AID 624263; active = well fitted activation curve with a large enough effect; inconclusive = small, poorly fitted or top-dose-only effect; inactive = flat fitted curve, though single readings scatter; cell line not stated here;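 further: potency means the concentration at half of the fitted maximal effect; % of control where 0% means no effect; nearly all actives have a fitted effect of over 65% in size; a mitochondrial uncoupler was the plate control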
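Readout is PINK1 immunofluorescence, quantified alongside mitochondrial, cell and nuclear markers by laser-scanning microplate cytometry. Cells from a stable line were exposed to compound titrations (5 concentrations) for 24 hours, with CCCP controls.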
D2 ag = human D2 receptor agonism in beta-arrestin assay; hit rate 0.084% among 360,000; P14416; activation, % (no concentration beside the values); DiscoveRx PathHunter D2 beta-arrestin, luminescence, 90 min; 100% = 57 uM dopamine signal; in the data active = activation above about 40%; inconclusive = about 15% to 40%; inactive = below about 15%; further: compound concentration not given in the record; the text of the record calls up to 30% inactive
Target sequence (P14416 whole entry, looked up): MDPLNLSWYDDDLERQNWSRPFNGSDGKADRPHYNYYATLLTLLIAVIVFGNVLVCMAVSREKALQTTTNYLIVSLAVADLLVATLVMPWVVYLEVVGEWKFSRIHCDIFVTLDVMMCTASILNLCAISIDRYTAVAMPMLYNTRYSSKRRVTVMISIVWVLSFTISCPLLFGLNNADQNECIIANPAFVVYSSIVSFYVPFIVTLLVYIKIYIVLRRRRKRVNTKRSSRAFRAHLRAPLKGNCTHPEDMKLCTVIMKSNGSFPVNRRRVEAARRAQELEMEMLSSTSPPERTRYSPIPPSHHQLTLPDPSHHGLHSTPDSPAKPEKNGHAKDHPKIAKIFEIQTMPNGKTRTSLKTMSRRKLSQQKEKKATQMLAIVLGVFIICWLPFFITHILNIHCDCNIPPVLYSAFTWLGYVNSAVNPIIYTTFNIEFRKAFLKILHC
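DiscoveRx PathHunter D2 beta-arrestin cells (2,100/well) attached overnight, then compound-stimulated 90 min at 37 C in HBSS/10 mM HEPES/0.1% Tween-20 buffer; beta-galactosidase complementation read by luminescence after 1 h at ambient temperature. Dopamine 57 uM final (EC100) as control.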
An asterisk follows results filed as active; ? = inconclusive; · = not tested or not shown; & = joins results of further samples; [ ] = another dose, or the depositor's remark.

SMILES	Sfp inh	gsp ag	ClpP mod	Menin MLL FP FL	gsp antagonist	PINK1 modulator	D2 ag
O=[N+]([O-])c1ccc(Cc2nnc(-c3ccc(F)cc3)o2)cc1	12%	-10%	-3.5%	-4.4	0%	0.7%	-3.5
Cc1onc(-c2cccc(Cl)c2Cl)c1C(=O)O/N=C(\N)c1ccc([N+](=O)[O-])o1	-4%	17%[15.4 µM]	·	5.7	-3%	-1.8%	12
CC1(C(=O)NCc2ccccn2)C=CCN1C(=O)c1ccccc1 (configuration not stated)	21%&16%	1%	-1.0%	1.9&-9.1	10%	0.9%	-3.4
COc1ccc(-c2[nH]ncc2/C=N/NC(=O)c2ccncc2)c(OC)c1	17%	1%[15.4 µM]	-0.8%	0.9	9%	2.7%	4.2
O=S(=O)(c1ccc(C(F)(F)F)cc1)N1CCCN(c2ccc(C(F)(F)F)cn2)CC1	16%	1%[15.4 µM]	·	0.1	1%	2.1%	-0.8
COC(=O)CN(C(=S)Nc1ccc(F)cc1)C1CC(=O)N(c2ccc(OC)cc2)C1=O (configuration not stated)	31%[activator]	6%	-0.4%	4.3	-16%	?	-1.4
COc1ccc(C(=O)Nc2c(C)ccc3nsnc23)cc1[N+](=O)[O-]	1%	0%	-1.2%	-0.3	11%	0.4%	-0.3
CC(C)(CN1CCC(Cc2ccccc2)CC1)NS(=O)(=O)c1ccccc1	?	2%	-0.6%	0.8	6%	7.5%	-0.4
O=C(O)c1cccc(S(=O)(=O)Nc2ccccc2C(=O)NCCc2ccccc2)c1	-1%	1%	·	-0.3	9%	-1.9%	2.7
C/C(=N\O)C(=O)NCCCn1ccnc1	24%	-15%[15.4 µM]	·	-2.6	6%	0.0%	-4.8
Fc1ccc(Nc2nnns2)cc1	8.9µM*	15%[15.4 µM]	-6.1%	-2.1	6%	0.8%	-6.0
CC(C)CCn1c(CN2CCN(Cc3ccccc3)CC2)nc2c1c(=O)[nH]c(=O)n2C	-7%	0%	-5.7%	-1.4	5%	-4.0%[38.3 µM]	-2.3
CNC(=O)c1csc(-c2ccncc2)n1	10%	-33%[inhibitor]	-3.5%	-1.1	1%	·	-2.1
O=C(COC(=O)c1cccc2ccccc12)Nc1cccnc1Cl	-8%	18%	16µM*	6.2	-1%	6.2%	5.0
Cc1cc(C)nc(/N=C2/NC(=O)CS2)n1	32µM*	-43%[inhibitor]	-0.4%	?	-6%	-1.0%[38.3 µM]	-2.9
CCOCCn1c(N2CCCC2)nc2c1c(=O)[nH]c(=O)n2C	40µM*	-20%	-2.7%	1.4	-12%	-0.3%	0.2
Cc1cc(C(=O)Nc2nc3c(s2)CCCC3)cs1	-7%	1%	9.6%	-0.1	-7%	?	-2.9
CC(=O)c1ccc(NC(=O)c2ccn(C(=O)OCC(C)C)n2)cc1	-26%	-26%[15.4 µM]	-0.4%	1.2	3%	-0.7%	-3.5
NS(=O)(=O)c1ccc(NC(=O)c2ccc(COc3ccccc3)o2)cc1	18%	2%[15.4 µM]	·	0.6	-1%	-0.5%	3.4
O=C(CCCN1C(=O)c2cccc3cccc(c23)C1=O)NCCN1CCOCC1	20%	9%[15.4 µM]	-1.3%	-3.5	-7%	4.9%	-3.9

Some of the entries above in a different format.
CC1(C(=O)NCc2ccccn2)C=CCN1C(=O)c1ccccc1 (configuration not stated)
  Sfp inh: 21%&16%
  gsp ag: 1%
  ClpP mod: -1.0%
  Menin MLL FP FL: 1.9&-9.1
  gsp antagonist: 10%
  PINK1 modulator: 0.9%
  D2 ag: -3.4
COc1ccc(-c2[nH]ncc2/C=N/NC(=O)c2ccncc2)c(OC)c1
  Sfp inh: 17%
  gsp ag: 1%[15.4 µM]
  ClpP mod: -0.8%
  Menin MLL FP FL: 0.9
  gsp antagonist: 9%
  PINK1 modulator: 2.7%
  D2 ag: 4.2

(next part)
SMILES	Sfp inh	gsp ag	ClpP mod	Menin MLL FP FL	gsp antagonist	PINK1 modulator	D2 ag
Cc1ccc(C(=O)NC(C)c2nnc(SCC(=O)NC3CCCC3)n2C)cc1 (configuration not stated)	-5%	8%	0.1%	·	7%	0.5%	-0.4
COc1ccccc1CC(=O)Nc1ccc(S(=O)(=O)N(C)C2CCN(C)CC2)cc1	·	21%	-3.9%	·	5%	-0.5%	-4.4
c1ncc(-c2ccc3c(c2)OCO3)c(NCCc2cnc[nH]2)n1	-16%	·	·	-1.8	·	-0.1%	·
CCOC(=O)C1=C(C)NC(C)=C(C(=O)OCCNC(=O)c2cccnc2)C1c1cccc([N+](=O)[O-])c1 (configuration not stated)	-10%	-18%	1.7%	3.8	-17%	3.8%	-6.6
CC(C)CC1NC(=O)N(CC(=O)Nc2cc(F)ccc2F)C1=O (configuration not stated)	·	5%	-0.6%	·	12%	0.4%	-1.4
Cc1ccc(S(=O)(=O)CCC(=O)OCc2ccc(Cl)cc2)cc1	14%	-3%	-1.3%	-2.0	-6%	0.1%	0.2
CCCOc1ncnc2c1sc1nc3c(cc12)COC(C)(C)C3	14%	6%	-8.0%	0.1	5%	0.5%	-0.8
COc1cc(-c2cc(C(=O)Nc3cccc(C(C)=O)c3)c3ccccc3n2)cc(OC)c1OC	8%	-26%	-28%	·	-12%	4.0%	9.6
CCc1ccc(C(=O)COC(=O)c2cc([N+](=O)[O-])ccc2N2CCOCC2)cc1	·	-9%[15.4 µM]	·	·	-1%	4.6%	0.0
Cc1cccc(NC(=O)NC(C)C(c2cccs2)N2CCOCC2)c1 (configuration not stated)	1%	-32%[inhibitor]	-0.6%	2.3	6%	0.2%	-5.8
COc1ccc(CN2C(=O)C(CC(=O)NC3CCCCC3)CC(C(=O)N(C(C)C)C(C)C)=C2C)cc1 (configuration not stated)	·	-5%	-0.8%	·	·	2.7%	-1.4
NS(=O)(=O)c1ccc(Nc2ccc3nonc3c2[N+](=O)[O-])cc1	16%	3%	0.2%	-4.8	0%	0.3%	7.6
O=C(C(Cc1ccccc1)N1C(=O)C2C3C=CC(C3)C2C1=O)N1CCCCC1 (configuration not stated)	-1%	0%	20µM*	5.4	0%	-0.5%	-4.9
CC(C(=O)NC1CCCCC1)N1CCN(C)CC1 (configuration not stated)	?	35%	0.4%	2.0	18%	1.3%	-3.1
O=C1CCC/C(=N/NC(=O)C2CCN(S(=O)(=O)c3cccs3)CC2)C1	0%	-47%[inhibitor]	·	3.3	8%	2.1%	0.3
COc1ccccc1NC(=O)CSc1ccc(-c2ccc(-n3ccnc3)cc2)nn1	·	-4%	0.7%	·	?	13%	4.4
COc1ccc(NC(=O)CCCCCn2nnc3ccccc3c2=O)cc1OC	6%	?	0.6%	-1.1	-6%	-0.1%	1.3
CCN(CC(=O)Nc1ccc(NC(C)=O)cc1)C(=O)c1ccc(N(C)S(=O)(=O)c2ccc(C)cc2)cc1	·	?	0.9%	·	2%	4.5%	-6.2
CCCC(=O)N1CCN(c2nnc(-c3ccc(C)cc3)c3ccccc23)CC1	-6%	9%	-2.2%	1.7	-12%	1.4%	2.9
CCOC(=O)C1CCN(c2ccc(Cl)nn2)CC1	7%	-4%	·	-0.6	2%	6.4%	0.7
CCc1ccc(C(=O)COC(=O)CNC(=O)c2ccc(Br)o2)cc1	2%	2%	-0.2%	·	-18%	0.5%	-5.3
COc1ccc(N2C(=O)CC(N(C)CCc3ccc(OC)c(OC)c3)C2=O)cc1 (configuration not stated)	8%	-8%[15.4 µM]	·	-1.1	7%	1.0%	-0.4
Cn1c(SCC(=O)NCCN2C(=O)CSC2=O)nc2ccccc2c1=O	2%	8%	-1.7%	-0.4	-4%	3.6%	-2.9
Cc1ccc(CN(Cc2cc3cc4c(cc3[nH]c2=O)OCCO4)Cc2nnnn2Cc2ccco2)cc1	10µM*	17%	32µM*	?	9%	-3.2%[38.3 µM]	-0.4
COc1ccc(-c2cc3cc(OC)c(OC)cc3c(C)n2)cc1C	-4%	-4%	3.7%	5.7	-20%	1.8%	0.6
CCN(CC)S(=O)(=O)c1ccc(Cl)c(NC(=O)COC(=O)c2cccn2C)c1	3%	-4%[15.4 µM]	·	0.3	·	10%	8.8
Cc1cc(C)nc(OC(C(=O)O)C(OCC(C)C)(c2ccccc2)c2ccccc2)n1 (configuration not stated)	5%	7%	-2.1%	-6.3	1%	-1.3%	2.8
Cc1cc(OCCOCCN2CCCC2)ccc1C(C)C	-10%	-1%	-1.4%	-2.7	-3%	0.8%	-1.2
Cc1cc(C)nc(SCc2cccc(C(=O)O)c2)n1	21%	-14%	-0.6%	-1.7	-15%	·	-4.3
O=C(N/N=C/C=C/c1ccccc1)c1ccncc1	28%	-10%[15.4 µM]	0.7%	6.6	-8%	-0.4%	-1.9
CC(C)Cc1nn2c(=O)cc(O)nc2s1	10%	0%[15.4 µM]	·	1.5	8%	1.0%	-1.2
CCn1c(SCC(=O)Nc2nc(C)cs2)nnc1-c1ccncc1	11%	-29%	·	·	-3%	1.2%	6.2
CCOC(=O)C1CCCCN1C(=O)CCc1c(C)nc2cc(-c3ccccc3)nn2c1C (configuration not stated)	-13%	26%	-4.9%	4.3	-2%	0.4%	2.8
O=C(COC(=O)/C=C/c1ccccc1)Nc1ccc(Cl)cn1	·	1%	-0.8%	·	9%	-0.9%	-3.5
CCN(C(=O)CSc1ncn[nH]1)c1c(N)n(Cc2ccccc2)c(=O)[nH]c1=O	·	-9%[15.4 µM]	-3.1%	·	-10%	-0.5%	1.3
CCCC(=O)NC1CCCc2c1cnn2-c1ccc(C)c(C)c1 (configuration not stated)	20%	-41%[inhibitor]	-1.3%	-2.9	-7%	0.3%	-5.7
NC(Cc1ccc(Cl)cc1)c1csc(Nc2ccc(C(=O)NCCCO)cn2)n1 (configuration not stated)	·	·	?	·	·	2.8%	-4.8
Cc1ccc(S(=O)(=O)N2CCN(C(=O)COc3ccc(NC(=O)c4ccco4)cc3)CC2)cc1	15%	-27%	-2.2%	5.3	?	11%	1.2

Screening results deposited in PubChem BioAssay by National Center for Advancing Translational Sciences (NCATS).
